Source: PubChem (several laboratories)
ALR inh – human ALR oxidase inhibition via reduced H2O2; purified ALR, DTT oxidation, H2O2 HRP-luminol luminescence; inhibition, % (test concentration not listed); 290,000 tested, 3.8% active; AID 485317;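 active = mean and each replicate at 75% or more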;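 also: stock transfer was 7.5 nL into about 7.5 µL; 0% = neutral wells and 100% = wells with inactivated enzyme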
Target sequence (P55789 whole entry, looked up): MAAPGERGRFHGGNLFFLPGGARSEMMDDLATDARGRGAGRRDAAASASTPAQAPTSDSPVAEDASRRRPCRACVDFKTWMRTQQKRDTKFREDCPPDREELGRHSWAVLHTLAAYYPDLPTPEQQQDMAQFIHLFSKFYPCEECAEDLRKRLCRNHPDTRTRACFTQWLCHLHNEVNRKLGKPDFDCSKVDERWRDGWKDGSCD
HNF4A DNA FP – change in binding of human HNF4 alpha to DNA | HNF4a-FITC DNA binding, fluorescence polarization, 1 h | activity change, % at 10 µM | 360,000 tested, 0.3% active | AID 1224865; in the data active = activity change above about 30%, passing the limit was not always enough;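 also: controls were the assay level and a saturating level of protein; the project sought stronger binding though the title names inhibitors; some compounds called inactive have numbers as strong as hits; positive values seem to mean higher polarization but the record does not say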
Target sequence (P41235 whole entry, looked up): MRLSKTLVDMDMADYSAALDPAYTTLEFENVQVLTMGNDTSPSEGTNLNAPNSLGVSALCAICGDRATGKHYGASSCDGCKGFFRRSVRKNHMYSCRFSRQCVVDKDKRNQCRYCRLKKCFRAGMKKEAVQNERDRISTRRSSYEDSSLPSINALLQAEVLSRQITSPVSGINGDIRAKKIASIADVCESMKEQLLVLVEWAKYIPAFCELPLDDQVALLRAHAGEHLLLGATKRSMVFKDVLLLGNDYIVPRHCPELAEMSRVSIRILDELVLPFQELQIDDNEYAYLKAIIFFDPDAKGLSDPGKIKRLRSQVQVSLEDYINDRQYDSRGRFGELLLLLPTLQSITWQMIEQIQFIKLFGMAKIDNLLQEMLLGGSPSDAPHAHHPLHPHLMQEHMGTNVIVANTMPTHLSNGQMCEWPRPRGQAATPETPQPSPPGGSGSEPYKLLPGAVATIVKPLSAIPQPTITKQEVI
Ecoli rRNA inh – inhibits bacterial ribosomal RNA function over humanized ribosomes; GFP signal change (wild-type ribosome), % (concentration not given with the values); 350,000 tested, 1.6% active; E. coli WT GFP vs humanized-ribosome RFP mutants, fluorescence, 24 h; hits give low values; DMSO median 0, no signal -100;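 active = significant combined selectivity score with lowered wild-type GFP, culture density cut under 30%, mutant RFP and density less affected; inactive = any of these conditions unmet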; also: one replicate is shown; some compounds called inactive have numbers as strong as hits
B2AR ag – human beta-2 adrenergic receptor agonism by FAP; P07550; 340,000 tested, 0.43% active; response, % (test concentration not listed); Am2.2-beta2AR cells, FAP receptor internalization, flow cytometry; reference of the scale not given here;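 active = response above a set limit, near 3 SD of response in nonfluorescent compounds, cut at about 42% in these data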;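 also: stock transfer was 100 nL into about 11 µL; a reference agonist was the positive control; negative values mostly stem from fluorescent compounds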
UCH37 DUB inh – blocks the human deubiquitinase UCH37; inhibition, % (no concentration beside the values); 330,000 tested, 0.33% active; Q9Y5K5; AID 588478; purified proteasome/UCH37, Ub-AMC cleavage fluorescence;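 active = mean of two replicates above 20%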;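 also: 0% = compound-free wells with enzyme and 100% = wells lacking proteasome; stock transfer was 100 nL into about 20 µL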
Target sequence (Q9Y5K5 whole entry, looked up): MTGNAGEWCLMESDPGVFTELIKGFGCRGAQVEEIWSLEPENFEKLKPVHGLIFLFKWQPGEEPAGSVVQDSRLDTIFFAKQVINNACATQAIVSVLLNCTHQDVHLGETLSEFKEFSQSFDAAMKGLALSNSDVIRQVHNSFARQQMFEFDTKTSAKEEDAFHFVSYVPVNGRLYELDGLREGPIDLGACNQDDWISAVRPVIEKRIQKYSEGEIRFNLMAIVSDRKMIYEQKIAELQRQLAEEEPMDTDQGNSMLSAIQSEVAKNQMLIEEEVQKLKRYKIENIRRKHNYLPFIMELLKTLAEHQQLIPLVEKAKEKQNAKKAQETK
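Assay system: Proteasome-bound UCH37. Buffer or medium: pH 7.4 Tris-HCl (50 mM) with ovalbumin, ATP-MgCl2, DTT. Incubation: 30 min preincubation with enzyme, 25 min cleavage at room temperature. Measured by: fluorescence, ex 355 nm, em 460 nm. Read-out basis: percent inhibition. Control set: wells without proteasome as full block, compound-free enzyme plus substrate as uninhibited.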
FGF22 binding – shifts melting point of recombinant human FGF22; Q9HCT0; 340,000 tested, 1.5% active; recombinant FGF22 thermal shift, SYPRO orange fluorescence; percent of sucrose octasulfate shift, DMSO zero; calls only at 9.99 µM;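 active = melting point raised past a set limit in the mean and every replicate; three in four hits are not shown here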
Ecoli growth – inhibitors of Escherichia coli growth; OD600, 23 h; hits give low values; OD600 absorbance (concentration not given with the values); 330,000 tested, 0.21% active; AID 1053175;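 active = OD600 absorbance below the run mean of sample wells minus 3.6 SD, in any replicate, cut at about 0.56 in these data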;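 also: stock transfer was 300 nL into about 60 µL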
Ecoli rRNA inh OD600 – further read-out of Ecoli rRNA inh, marked with its call; OD600 change, %; measured here: OD600 growth;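 optical density of the mix in the first replicate; 0 = DMSO median and -100 = no signal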
Ecoli rRNA inh RFP – also measured in Ecoli rRNA inh; calls as there; RFP signal change, %; measured here: RFP humanized mutant strains;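 first replicate; 0 = DMSO median and -100 = no signal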
An asterisk follows results filed as active; i = inactive; · = no result given.

SMILES | ALR inh | HNF4A DNA FP | Ecoli rRNA inh | Ecoli rRNA inh OD600 | Ecoli rRNA inh RFP | B2AR ag | UCH37 DUB inh | FGF22 binding | Ecoli growth
Cc1ccn2c(-c3n[nH]c(=S)n3C)c(C)nc2c1 | 95* | 0.0 | · | · | · | 4 | 3.5 | · | ·
Cc1ccc(S(=O)(=O)N2CCN(c3ccccc3)CC2)cc1C(N)=O | 21 | 0.3 | 9 | 6 | 1.5 | 1 | 0.0 | i | 0.68
CN(C)/C=C/C(=O)c1ccc(S(=O)c2ccccc2)cc1 (configuration not stated) | 9 | -6.3 | -22 | -25 | -8.5 | 8 | 16 | i | 0.68
S=C(Nc1ccc(Cl)cc1)c1nc2ccccc2s1 | -6 | 2.5 | · | · | · | -8 | 2.7 | · | 0.81
OCCC1CN(Cc2ccsc2)CCN1C1CCCC1 (configuration not stated) | -13 | 3.1 | 21 | 12 | 0.4 | 11 | 1.0 | i | 0.72
COc1ccc(C(=O)NCCC2=CCCCC2)cc1OC1CCN(C(C)C)CC1 | 0 | 1.2 | 0 | 0 | -3.1 | -10 | 3.0 | i | 0.7
NS(=O)(=O)c1ccccc1NC(=O)c1c(O)c2ccccc2[nH]c1=O | -13 | 1.0 | 5 | 2 | 2.3 | -8 | -10 | i | 0.68
Cc1cccc(-c2nc3ccccc3c(=O)n2NC(=O)c2cccs2)c1 | -5 | -1.7 | -3 | -2 | -5.8 | 5 | 4.4 | i | 0.71
CCOc1cc(/C=C2\COc3ccccc3C2=O)cc(Br)c1OCC(=O)N(C)C | · | -0.8 | -15 | -21 | 4.1 | 55* | 3.6 | i | 0.7
Cn1cc(/C=C2\SC(=S)N(N3CCOCC3)C2=O)c2ccccc21 | 16 | 7.3 | · | · | · | 10 | 1.8 | i | 0.69
COc1cc(OC)c(C(=O)N2CCN(c3ccccn3)CC2)cc1OC | -4 | 2.2 | 5 | 16 | 3.8 | -5 | 3.2 | i | 0.72
Cc1nc(NC(=O)C23CCC(C)(C(=O)O2)C3(C)C)sc1C (configuration not stated) | · | -4.5 | · | · | · | -4 | 4.6 | · | 0.81
COc1ccc(N(CC(=O)NCCSCc2ccccc2C)S(=O)(=O)c2ccccc2)cc1 | -9 | -2.3 | -24 | -32 | -4.6 | 5 | 1.0 | i | 0.75
COc1cc2c(cc1OC)CN(C(=O)CCNS(=O)(=O)c1ccccc1F)CC2 | -7 | -4.3 | 2 | -2 | 4.2 | 6 | -7.1 | i | 0.69
CSc1nc(C)cc(OCCNS(=O)(=O)c2cc(C)ccc2C)n1 | 2 | -3.6 | · | · | · | 0 | -0.3 | · | 0.69
O=C1CSC(c2cccc([N+](=O)[O-])c2)N1c1ccccc1F (configuration not stated) | -10 | -3.1 | -4 | -8 | -3.1 | -2 | -0.5 | i | 0.69
O=C(Nc1ccc(Cl)c(Cl)c1)OCCNC(=O)c1ccncc1 | 51 | 2.5 | -18 | -11 | -0.8 | 5 | 2.3 | i | 0.68
CC(=O)Nc1ccc(N=Cc2c(O)c(C(=O)Nc3ccccc3)cc3ccccc23)cc1 | -6 | · | · | · | · | · | 14 | i | 0.73
Cc1ccc(C(C)C)c(OCC(O)CN2CC(C)OC(C)C2)c1 (configuration not stated) | 1 | 1.5 | · | · | · | -6 | 3.2 | · | 0.68
Nc1nc2nccc(-c3ccccn3)n2n1 | -7 | 0.7 | 7 | 11 | 3.6 | 5 | -133 | i | 0.68
COc1ccc(C(C)(C)C)cc1NC(=O)CCN1C(=O)C2CCCCC2C1=O (configuration not stated) | · | -0.9 | -8 | -18 | 1.4 | -1 | 0.3 | i | 0.72
O=C(c1cccs1)N1CCN(c2ccc(F)cc2)CC1 | · | -1.0 | · | · | · | -2 | -2.9 | · | 0.75
COC(=O)c1ccc2nc(-c3ccc(OC)c(OC)c3)c(Cc3ccc(OC)cc3C)n2c1 | · | 5.6 | -2 | 4 | 7.7 | · | · | i | ·
Cc1cccc(C(=O)NCCC(=O)N2CCc3ccccc3C2)c1 | · | -1.1 | -2 | 3 | 2.9 | 4 | 2.8 | i | 0.63
Cc1ccc(NS(=O)(=O)c2cc(C(=O)Nc3cccnc3)ccc2C)cc1 | -6 | -2.8 | -15 | -21 | 3.8 | -3 | 0.6 | i | 0.7
CN(CC(=O)N(C)CC(=O)Nc1c(Cl)cccc1Cl)Cc1ccc(Br)s1 | 2 | -0.7 | -7 | -4 | 5.5 | 15 | 0.8 | i | 0.68
COc1ccc(N2C(=O)NC(NS(=O)(=O)c3ccc(NC(C)=O)cc3)(C(F)(F)F)C2=O)cc1 (configuration not stated) | -1 | -1.6 | · | · | · | -3 | 5.9 | i | 0.73
S=C(Nc1ccc(Br)cc1)Nc1ccc2c(c1)OCCO2 | -5 | 5.8 | -38 | -64 | 1.7 | -4 | 2.8 | i | 0.69
CC(CN1CCOCC1)OC(=O)c1ccc(C(C)(C)C)cc1 (configuration not stated) | 2 | 2.0 | -5 | 0 | 2.3 | -3 | 2.6 | · | 0.68
O=C(NCCCn1ccnc1)c1cc(C(=O)C2CC2)c[nH]1 | -5 | -1.3 | · | · | · | -9 | 5.1 | · | 0.72
O=C(Nc1nc(-c2ccccn2)cs1)c1ccc(Cl)s1 | 87* | 5.0 | -58 | -78 | -27 | -18 | -8.8 | i | 0.71
O=C(c1ccc(Cl)cc1)N1N=C(c2ccccn2)CC1(O)C(F)(F)F (configuration not stated) | -1 | -0.8 | · | · | · | -10 | -1.1 | i | 0.69
Cc1cc(-c2ccccc2)nc(Cl)c1C#N | -1 | 0.1 | 9 | 3 | -3.4 | -2 | -4.2 | i | 0.67
CCOc1ccc(OCC)c(-c2c(=O)n(OCc3ccccc3Br)c3ccccc3[n+]2[O-])c1 | 0 | -3.0 | · | · | · | 5 | 4.2 | · | 0.78
O=C(CSc1nc2ccccc2[nH]1)Nc1cc(C(F)(F)F)ccc1N1CCOCC1 | -17 | -0.8 | · | · | · | -10 | 0.0 | · | 0.69
Cc1cc(NC(=O)NC(=O)c2ccccc2NC(=O)CN)ccc1Oc1ncc(Br)cn1 | · | 0.6 | · | · | · | 14 | · | i | ·
O=CNCCCc1nc2ccccc2n1Cc1cccc2ccccc12 | -3 | 2.0 | · | · | · | -12 | 4.8 | · | 0.67
CSc1nc(-c2ccc(C)cc2)nc(N)c1C#N | -10 | 6.9 | 14 | 10 | 1.1 | 5 | -2.1 | i | 0.6
Cc1ccccc1NC(=O)COC(=O)c1c(C)nn(-c2ccccc2)c1C | · | 1.7 | -3 | -1 | -1.8 | · | · | i | ·
COC(=O)C1=C(C(=O)OC)[C@@H]2N(C)c3ccc(OC)cc3[C@@]23C[C@@H](C(=O)OC)N(C(=O)COCc2ccccc2)C3=N1 | -6 | · | 5 | 3 | 4.3 | · | 3.3 | i | ·
CCc1sc(C(=O)Nc2ccccc2N2CCOCC2)cc1C | · | 3.2 | -50 | -65 | -10 | -6 | 1.6 | i | 0.64
CC(=O)NC1C(=O)Nc2c(C)cc(C)cc21 (configuration not stated) | 2 | 1.1 | · | · | · | 3 | 0.3 | · | 0.7
O=C(Nc1ccon1)Nc1ccccc1C(F)(F)F | -6 | 1.6 | 3 | 6 | -3.5 | 0 | 2.7 | i | 0.68
CCC(C)NCCCCOc1ccc(Cl)cc1C (configuration not stated) | -4 | -0.9 | · | · | · | 8 | 3.7 | · | 0.69
Cc1ccc(/C=C/C(=O)Nc2sc3c(c2C#N)CCCC3)o1 | 93* | -1.2 | 7 | 11 | 0.6 | 3 | -85 | i | 0.75

Marked active in ALR inh, of those listed so far:
SMILES | ALR inh | HNF4A DNA FP | Ecoli rRNA inh | Ecoli rRNA inh OD600 | Ecoli rRNA inh RFP | B2AR ag | UCH37 DUB inh | FGF22 binding | Ecoli growth
Cc1ccn2c(-c3n[nH]c(=S)n3C)c(C)nc2c1 | 95* | 0.0 | · | · | · | 4 | 3.5 | · | ·
O=C(Nc1nc(-c2ccccn2)cs1)c1ccc(Cl)s1 | 87* | 5.0 | -58 | -78 | -27 | -18 | -8.8 | i | 0.71
Cc1ccc(/C=C/C(=O)Nc2sc3c(c2C#N)CCCC3)o1 | 93* | -1.2 | 7 | 11 | 0.6 | 3 | -85 | i | 0.75

Going on with the list:
SMILES | ALR inh | HNF4A DNA FP | Ecoli rRNA inh | Ecoli rRNA inh OD600 | Ecoli rRNA inh RFP | B2AR ag | UCH37 DUB inh | FGF22 binding | Ecoli growth
CC1CCN(C(=O)CCCOc2ccc(Cl)cc2)CC1 | -6 | -1.0 | · | · | · | 0 | 1.1 | · | 0.73
NS(=O)(=O)c1ccc(NC(=O)CSc2nc3ccccc3n2-c2ccccc2)cc1 | -8 | 2.2 | · | · | · | 6 | 1.7 | · | 0.71
CC(=O)Nc1ccc(C(=O)OCCc2ccccc2)cc1 | -3 | -2.2 | -10 | -15 | 3.7 | 6 | 1.9 | i | 0.64
Clc1ccc(-n2c(SCc3nc4ccccc4[nH]3)nnc2-c2ccncc2)cc1 | -6 | 1.0 | · | · | · | -1 | 2.7 | · | 0.66
COc1ccc(NC(=O)N2CCCC2C(=O)NCCc2ccccc2)cc1 (configuration not stated) | 39 | 2.9 | 3 | 6 | 1.6 | 7 | 3.8 | i | 0.7
NS(=O)(=O)c1ccc(N/N=C/c2ccc[nH]2)c([N+](=O)[O-])c1 | 97* | 5.7 | -18 | -12 | -7.4 | 6 | · | i | ·
Cn1c(=O)n(C)c2cc(S(=O)(=O)N3CCN(c4ccccc4)CC3)ccc21 | -1 | 4.2 | 7 | 8 | -0.8 | -11 | 4.2 | i | 0.72
NC(=S)c1c(Cl)cc(C(F)(F)F)cc1Cl | -3 | 4.2 | · | · | · | 2 | 3.6 | i | 0.62
CC1CCCC(NC(=O)CCS(=O)(=O)c2cc3c(cc2Cl)NC(=O)CO3)C1C (configuration not stated) | 0 | -3.0 | 4 | 8 | -1.7 | 4 | 1.7 | i | 0.71
CCOC(=O)c1c(C)nc2sc3c(c2c1-c1ccc(OC)cc1)NC(c1ccc(OC)cc1)NC3=O (configuration not stated) | -12 | 1.9 | · | · | · | 4 | -15 | · | 0.72
CCCCn1c(N)c(N(CC)C(=O)c2ccc(Cl)c([N+](=O)[O-])c2)c(=O)[nH]c1=O | 0 | 0.9 | 2 | 7 | -2.0 | 2 | 1.7 | i | 0.66
CCOc1c(C)cc(S(=O)(=O)NCc2ccccn2)c(C)c1C | 0 | 1.3 | -24 | -38 | -5.5 | -3 | 2.8 | i | 0.65
COC(=O)c1cc2ccsc2n1CC(=O)N1CCCc2ccccc21 | -2 | 5.9 | -3 | -3 | 0.0 | 5 | 1.5 | i | 0.72
CCOC(=O)C1CCCN(CCC(=O)Nc2cc(C)ccc2C)C1 (configuration not stated) | 1 | 5.7 | 14 | 8 | 2.3 | -2 | 6.0 | i | 0.73
Cc1[nH]c2ccccc2c1SCC(=O)N1CCCc2ccccc21 | 74 | -0.2 | -23 | -52 | -8.5 | -6 | 4.5 | i | 0.77
COc1ccc(NC(=O)N(Cc2cccnc2)Cc2ccccc2Cl)c(OC)c1 | · | 3.3 | · | · | · | · | 6.7 | · | 0.74
CC(=O)Nc1ccc(NC(=O)CSc2nnc(-c3ccc(NS(C)(=O)=O)cc3)n2C)cc1C | · | -2.5 | 10 | 2 | -5.0 | 1 | 3.9 | i | 0.67
COc1ccc(CNC(=O)CN2C(=O)COc3ccc(S(=O)(=O)N4CCC(C)CC4)cc32)cc1 | · | 3.0 | -10 | -11 | 2.6 | 2 | 1.4 | i | 0.7
CCOc1cc(CNc2ccc(OC)cc2)cc(Br)c1OCC(=O)NC(C)(C)C | 8 | 0.7 | -25* | -20* | -1.1* | -5 | 1.8 | · | 0.68

Some of the compounds tested; count on the stated rates, not on these rows.
